YopH PTP inh – inhibitors of Yersinia enterocolitica YopH tyrosine phosphatase; fluorescence Ex485/Em525; inhibition, %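 (about 10 µM by stock and volumes)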; hit rate 0.16% among 140,000; AID 898;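 active = inhibition of 50% or more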;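 also: controls were vehicle for no effect and minimum signal wells for full effect; inactives centre near -20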
Arbovirus anti – antivirals against arbovirus infection; AID 1251; arbovirus infection cell-based antiviral screen; hit rate 0.37% among 200,000; inhibition, % at 10 µM;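 active = inhibition from about 30%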;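 also: bluetongue infection of BSR cells; cell survival read as ATP light after 72 h; 0% = infected wells without compound and 100% = uninfected wells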
Mtb growth – M. tuberculosis H37Rv growth inhibitors, H37Rv strain (AID 1626). hit rate 0.95% among 220,000. one-dose inhibition, % at 10 µM; IC50 in µM for titrated hits. M. tuberculosis H37Rv growth inhibition; higher % means a stronger effect;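 active = confirmed in a dose series; inconclusive = inhibition above 80% but not taken into the dose series; inactive = below 80% or under 30% at every dose of the series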;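 also: bacteria incubated seven days before Alamar blue readout; 0% = bacteria only wells and 100% = bacteria with antibiotic wells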
RecA splice inh – inhibitors of M. tuberculosis RecA intein splicing | P9WHJ3 | cell-free RecA intein splicing, fluorescence | inhibition, %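 (about 9 µM by stock and volumes)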 | hit rate 0.75% among 290,000; in the data active = inhibition above about 30%; inconclusive = no clear call, values can overlap the other calls;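 also: 0% = vehicle wells and 100% = reference inhibitor control wells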
Target sequence (P9WHJ3 whole entry, looked up, canonical isoform): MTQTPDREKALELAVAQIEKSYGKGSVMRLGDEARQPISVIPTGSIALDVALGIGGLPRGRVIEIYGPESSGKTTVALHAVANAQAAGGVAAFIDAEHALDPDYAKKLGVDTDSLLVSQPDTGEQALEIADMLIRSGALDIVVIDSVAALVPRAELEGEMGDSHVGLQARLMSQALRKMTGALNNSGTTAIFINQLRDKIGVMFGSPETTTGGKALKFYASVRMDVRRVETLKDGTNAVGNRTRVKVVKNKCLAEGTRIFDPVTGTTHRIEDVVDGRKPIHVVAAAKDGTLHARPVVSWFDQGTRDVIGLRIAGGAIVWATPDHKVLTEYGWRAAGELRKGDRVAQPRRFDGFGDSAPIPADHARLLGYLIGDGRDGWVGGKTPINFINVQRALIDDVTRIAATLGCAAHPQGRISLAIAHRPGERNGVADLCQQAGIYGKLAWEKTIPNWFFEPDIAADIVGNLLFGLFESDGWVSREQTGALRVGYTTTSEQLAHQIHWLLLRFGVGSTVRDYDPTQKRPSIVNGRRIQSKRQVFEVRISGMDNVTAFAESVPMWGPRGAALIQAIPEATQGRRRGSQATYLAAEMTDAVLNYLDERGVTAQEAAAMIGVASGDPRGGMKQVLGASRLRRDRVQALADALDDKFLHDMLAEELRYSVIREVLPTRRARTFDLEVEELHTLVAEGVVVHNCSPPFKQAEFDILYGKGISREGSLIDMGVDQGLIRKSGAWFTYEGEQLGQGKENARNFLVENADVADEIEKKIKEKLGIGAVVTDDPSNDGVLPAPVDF
Mtb betalactam – beta-lactam sensitization of Mtb H37Rv. M. tuberculosis H37Rv growth with meropenem, percent inhibition; hits of this screen are not shown here. inhibition, % at 25 µM. hit rate 0.27% among 330,000. AID 434955;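 active = about 74% or more and at least 40 points above the plate without the antibiotic, then above 30% in a dose series; inconclusive = first-round hits that could not be retested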;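 also: growth measured after seven days incubation then overnight dye step; 0% = bacteria only wells and 100% = bacteria with antibiotic; twin plates without the antibiotic show which effects depend on it; some results filed as inactive read as strong as hits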
Arbovirus anti repeat – recorded beside Arbovirus anti, whose call it bears; inhibition, %; measured here: 10K subset replicate screen; many hits read low in the repeat;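 first of two repeat runs on a subset; 0% = infected and 100% = uninfected wells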
An asterisk follows results filed as active.

Screening CCOc1ccc(CNC(=S)NCc2ccc(OCC)cc2)cc1 returned YopH PTP inh -32.3, Arbovirus anti 3.7, Mtb growth 43.1%, RecA splice inh 0.5 and Mtb betalactam 89.2.
For CC1=C(C(=O)Nc2ccccc2)C(c2cccs2)n2nnnc2N1 (stereo unspecified) the results were YopH PTP inh 9.3, Arbovirus anti 2.0, Mtb growth -5.8%, RecA splice inh 3.0 and Mtb betalactam 0.1.
`N#C/C(=N\Nc1ccc(Cl)cc1)C(=O)c1ccsc1` gave Mtb growth -2.3%, RecA splice inh -3.0 and Mtb betalactam -9.6.
`Cc1ccc(NC(=O)C(C)S)cc1` (stereo unspecified) gave RecA splice inh 3.7 and Mtb betalactam -4.1.
For O=[N+]([O-])c1ccc(COc2ncnc3ccccc23)cc1 the results were Arbovirus anti 5.9, Mtb growth -2.7%, RecA splice inh 2.8 and Mtb betalactam -13.5.
Cc1ccc2c(c1)N(C(=O)c1ccco1)C(C)(C)c1ssc(=S)c1-2 was read as YopH PTP inh -4.0, Arbovirus anti -6.1, Mtb growth 1.0%, RecA splice inh -0.3 and Mtb betalactam -3.2.
CCCCOCCCNC(=O)c1cccs1 was read as YopH PTP inh -14.7, Arbovirus anti 0.1, Mtb growth 12.9%, RecA splice inh -4.3 and Mtb betalactam -0.9.
Screening COc1ccc(Cl)cc1NC(=O)CN(C)CC(=O)Nc1ccc(Br)cc1 returned Arbovirus anti -19.6, Mtb growth 7.5% and Mtb betalactam 0.9.
`COP(=O)(NC(=O)C(Cl)(Cl)Cl)OC` gave Mtb growth -4.5%, RecA splice inh 0.8 and Mtb betalactam -10.0.
`Cn1c(N)c(S(=O)(=O)NCc2ccccc2)c(=O)n(C)c1=O` gave Mtb growth -2.8%, RecA splice inh 1.2 and Mtb betalactam -6.7.
O=C(O)CSCC(=O)Nc1ccc(S(=O)(=O)N2CCCCC2)cc1 was read as YopH PTP inh -46.0, Arbovirus anti 0.6, Mtb growth -7.0%, RecA splice inh -1.0 and Mtb betalactam -9.3.
`CC1CN(C(=S)Nc2ccccc2F)CC(C)O1` (stereo unspecified) gave RecA splice inh 4.0 and Mtb betalactam -7.5.
For CC(C#N)Sc1nnc(-c2ccccc2F)n1C1CC1 (stereo unspecified) the results were RecA splice inh -3.0 and Mtb betalactam -5.0.
For CCOC(=O)c1ccc(NC(=O)CCc2nnc3ccc(N4CCCC4)nn23)cc1 the results were RecA splice inh -1.1 and Mtb betalactam 99.5.
Screening CSc1nnc(-c2ccccc2SC)o1 returned Arbovirus anti -1.0, Mtb growth 5.8%, RecA splice inh 6.9 and Mtb betalactam -3.1.
For O=C(O)c1ccc(Nc2nc(-c3cccnc3)nc3ccccc23)cc1 the results were Arbovirus anti 5.7, RecA splice inh 6.4 and Mtb betalactam 1.1.
`O=S(=O)(c1ccc(Br)s1)N1CCc2ccccc2C1` gave YopH PTP inh 8.0, Arbovirus anti -0.4, Mtb growth 3.1%, RecA splice inh 8.1 and Mtb betalactam 16.4.
COc1ccc(/C=N/NS(=O)(=O)c2ccc(C)cc2)cc1 was read as RecA splice inh -1.4 and Mtb betalactam 1.4.
Screening Cc1ccccc1OCCC(=O)N(CC(=O)Nc1ccccc1C(F)(F)F)Cc1ccco1 returned RecA splice inh 0.1 and Mtb betalactam -0.5.
Screening Cc1ccc[n+](C(C)C(=O)Nc2ccc(C)c([N+](=O)[O-])c2)c1 (stereo unspecified) returned YopH PTP inh -29.9, Arbovirus anti 3.4, Mtb growth -9.5%, RecA splice inh -5.2 and Mtb betalactam 14.8.

Structural class, those above containing a Cl atom
`N#C/C(=N\Nc1ccc(Cl)cc1)C(=O)c1ccsc1` gave Mtb growth -2.3%, RecA splice inh -3.0 and Mtb betalactam -9.6.
Screening COc1ccc(Cl)cc1NC(=O)CN(C)CC(=O)Nc1ccc(Br)cc1 returned Arbovirus anti -19.6, Mtb growth 7.5% and Mtb betalactam 0.9.
`COP(=O)(NC(=O)C(Cl)(Cl)Cl)OC` gave Mtb growth -4.5%, RecA splice inh 0.8 and Mtb betalactam -10.0.

Carrying on:
CCN(CC)C(=O)N[C@H]1C[C@@H]2c3cccc4[nH]cc(c34)C[C@H]2N(C)C1 was read as YopH PTP inh -17.3, Arbovirus anti -5.3, Mtb growth 0.2%, RecA splice inh 11.8 and Mtb betalactam -10.6.
CC(C)CCNC(=O)C1CC(c2ccc(C(F)(F)F)cc2)=NO1 (stereo unspecified) was read as Mtb growth -0.7%, RecA splice inh -0.6 and Mtb betalactam -0.9.
Screening COc1ccc(NC(=O)CCNC(=O)c2ccco2)cc1S(=O)(=O)N(C)C returned RecA splice inh 6.3 and Mtb betalactam -3.0.
`Cc1csc(NC(=O)CN2CCCCCC2)n1` gave YopH PTP inh -25.0, Arbovirus anti 9.8, Mtb growth 0.2%, RecA splice inh -0.4 and Mtb betalactam -2.1.
For Cc1ccc(C)c(N2CCN(C(=O)CCCCCn3c(=S)[nH]c4ccc(N5CCOCC5)cc4c3=O)CC2)c1 the results were RecA splice inh -6.4 and Mtb betalactam 5.5.
`CNC(=S)N/N=C1\C2CN3CCN(C2)CC1(c1ccccc1)C3` gave YopH PTP inh -14.0, Arbovirus anti -1.2, Mtb growth -3.5%, RecA splice inh -2.6 and Mtb betalactam 6.9.
For CNC(=O)N/N=C(\N)c1ccccn1 the results were Mtb growth -10.0%, RecA splice inh -3.2 and Mtb betalactam -3.6.
Cc1cnc(C(=O)Nc2ccc(N3CCCCC3)cc2)cn1 was read as Arbovirus anti -2.5, Mtb growth -3.8%, RecA splice inh -1.0 and Mtb betalactam 2.6.
Cc1nn(-c2ccccc2)c(C)c1[N+](=O)[O-] was read as Arbovirus anti 8.4, Mtb growth 1.8%, RecA splice inh 1.0 and Mtb betalactam -4.8.
Screening Cc1cc(C)n(-c2ccc(NN=C(C#N)C#N)cc2)n1 returned Mtb growth -0.2%, RecA splice inh 57.0* and Mtb betalactam -3.0.
`CC1(C)CC(=O)C(C=Nc2ccc3c(c2)OCO3)=C(O)C1` gave YopH PTP inh -167.9, Arbovirus anti -9.7, Mtb growth >100µM*, RecA splice inh -0.5 and Mtb betalactam -7.3.
`CC(C)C(=O)Nc1cccc(C(=O)NCCc2ccc(S(N)(=O)=O)cc2)c1` gave YopH PTP inh -10.3, Arbovirus anti 1.0, Mtb growth -12.4%, RecA splice inh 0.6 and Mtb betalactam 3.1.
`COc1ccc(CN(C(=O)c2ccc3c(c2)OCCO3)C(C(=O)NC2CCCCC2)c2ccc3ncccc3c2)cc1` (stereo unspecified) gave YopH PTP inh -7.8, Arbovirus anti -4.7, Mtb growth 67.9%, RecA splice inh -2.5 and Mtb betalactam 97.6.
Screening CC1=CCC2([N+](=O)[O-])CN(CC(=O)O)CC1([N+](=O)[O-])C2 (stereo unspecified) returned YopH PTP inh -29.9, Arbovirus anti 1.7, Mtb growth -9.8%, RecA splice inh 1.7 and Mtb betalactam -4.7.
Screening CCCS(=O)(=O)n1nc(-c2ccccc2)cc1N returned YopH PTP inh -51.7, Arbovirus anti 9.3, Mtb growth 0.1%, RecA splice inh 0.9 and Mtb betalactam 4.1.
`COc1cc(CCCN2C(=O)C(=O)NC[C@@H]2C(C)O)cc(OC)c1OC` (stereo partly specified) gave Mtb growth 10.5%, RecA splice inh -1.8 and Mtb betalactam -14.5.
Screening CCCNc1nc(OCC(F)(F)F)nc(OCC(F)(F)F)n1 returned YopH PTP inh -16.0, Arbovirus anti -10.2, Mtb growth -3.2%, RecA splice inh 1.0 and Mtb betalactam 8.9.
Cc1ccc(-c2csc(NC(=S)NC(=O)c3cccs3)n2)cc1 was read as YopH PTP inh -15.2, Arbovirus anti 3.7, Mtb growth 4.0%, RecA splice inh 0.4 and Mtb betalactam 4.3.
Screening Cc1ccc(OCCC(=O)N(CCC(C)C)c2c(N)n(Cc3ccccc3)c(=O)[nH]c2=O)cc1 returned RecA splice inh 0.7 and Mtb betalactam 0.8.
`CC(C)Cn1c(SC(C)C(=O)Nc2ccc(N3CCOCC3)cc2)nc2ccccc21` (stereo unspecified) gave YopH PTP inh -20.5, Arbovirus anti -6.0, Mtb growth 1.2%, RecA splice inh 4.9 and Mtb betalactam -2.8.
CN1CCN(C(=O)CCc2nc3ccccc3c(=O)[nH]2)CC1 was read as YopH PTP inh -13.7, Arbovirus anti 8.5, Mtb growth -1.6%, RecA splice inh -1.7 and Mtb betalactam -4.4.
`CCOC(=O)CN(C(=O)CNC(=O)c1cccs1)C(C(=O)NC1CCCCC1)c1cccnc1` (stereo unspecified) gave YopH PTP inh -9.3, Arbovirus anti 5.2, Mtb growth 3.7%, RecA splice inh -0.5 and Mtb betalactam 0.6.
`O=C(Nc1ccc2c(c1)CCC2)Nc1ccccc1Cl` gave RecA splice inh 0.5 and Mtb betalactam 1.1.
Screening CC(=O)c1ccc(NC(=O)C(C)OC(=O)CCN=C2NS(=O)(=O)c3ccccc32)cc1 (stereo unspecified) returned RecA splice inh -0.2 and Mtb betalactam -0.2.
For O=C1CC(C(=O)O)C2(CCCC2)O1 (stereo unspecified) the results were YopH PTP inh -36.3, Mtb growth 9.2%, RecA splice inh -1.1 and Mtb betalactam -7.9.
`COC(=O)c1ccccc1NC(=O)CCCCCn1nnc2ccccc2c1=O` gave RecA splice inh 0.9 and Mtb betalactam -1.1.
Screening CCOC(=O)c1ccc(NC(=O)CN(C)S(=O)(=O)c2ccc(OC)cc2)cc1 returned YopH PTP inh -16.6, Arbovirus anti -1.4, Mtb growth -10.7% and Mtb betalactam -0.3.
CC(=O)c1c(C)[nH]c(C(=O)Nc2nccs2)c1C was read as Arbovirus anti -12.5, Mtb growth 0.3%, RecA splice inh 1.1 and Mtb betalactam 3.6.
Screening CN(CC(=O)NC1CCCCC1)S(=O)(=O)c1ccc2c(c1)c(=O)n(C)c(=O)n2C returned RecA splice inh -0.3 and Mtb betalactam 4.8.
`Cc1ccccc1-c1cccc(CN2CCN(C)C(CCO)C2)c1` (stereo unspecified) gave RecA splice inh -0.9 and Mtb betalactam -6.3.
`COCCCN1C(=O)C(O)=C(C(=O)c2ccc(C)o2)C1c1cccc(Br)c1` (stereo unspecified) gave YopH PTP inh -42.2, Arbovirus anti 10.0, Mtb growth -10.4%, RecA splice inh 2.0, Mtb betalactam -2.7 and Arbovirus anti repeat 2.6.
COC(=O)c1sccc1NC(=O)c1ccccc1 was read as Arbovirus anti -1.2, Mtb growth 2.4%, RecA splice inh -2.3 and Mtb betalactam 5.2.
`COCCn1c(SCC(=O)c2c[nH]c3ccccc23)nnc1-c1ccncc1` gave YopH PTP inh -18.5, Arbovirus anti 0.3, Mtb growth -0.8%, RecA splice inh -0.1 and Mtb betalactam -3.8.
Screening CCNc1nc(NC(C)(C)C)nc(N2CCCC2)n1 returned YopH PTP inh 32.9, Arbovirus anti 18.8, RecA splice inh -0.4 and Mtb betalactam 5.2.
For C=CCn1c(N2CCOCC2)nc2c1c(=O)[nH]c(=O)n2C the results were Arbovirus anti 1.6, Mtb growth -4.8%, RecA splice inh -3.4 and Mtb betalactam 1.5.
For Cc1cccc2nc(CSc3nc4[nH]ncc4c(=O)n3-c3ccccc3Cl)cc(=O)n12 the results were YopH PTP inh -22.6, Arbovirus anti 15.7, Mtb growth -4.6%, RecA splice inh 2.5 and Mtb betalactam 0.8.
Screening O=C1CCC(C(=O)N(CCO)Cc2ccccc2)CN1CC1CCCCC1 (stereo unspecified) returned RecA splice inh -0.6 and Mtb betalactam inconclusive.
Screening CO/N=C/c1ccc(Sc2ccc(C)cc2)c([N+](=O)[O-])c1 returned YopH PTP inh -9.7, Arbovirus anti -7.8, Mtb growth -1.0%, RecA splice inh 1.5 and Mtb betalactam -6.1.
For COC(=O)C(CC(C)C)NC(=O)c1cccs1 (stereo unspecified) the results were Arbovirus anti 13.5, Mtb growth 6.5%, RecA splice inh -2.0 and Mtb betalactam 43.8.
`O=C(CN1C(=O)C2CCCCC2C1=O)N1CCN(c2ccc(F)cc2)CC1` (stereo unspecified) gave Arbovirus anti -4.9, Mtb growth -2.1%, RecA splice inh 6.2 and Mtb betalactam -11.1.
NNC(=O)c1cc2ccccc2[nH]1 was read as Arbovirus anti -18.9, Mtb growth -3.7%, RecA splice inh -9.3 and Mtb betalactam 9.8.
`Fc1cccc(/C=N/NC(=S)Nc2ccccc2Cl)c1` gave YopH PTP inh -26.9, Arbovirus anti -13.1, Mtb growth 8.8%, RecA splice inh 6.9 and Mtb betalactam 5.7.
O=C([C@H](O)c1ccccc1)N1CCC[C@H]1CO was read as YopH PTP inh -34.0, Arbovirus anti 0.5, Mtb growth 0.8%, RecA splice inh -2.1 and Mtb betalactam -5.5.
CC(=O)c1c(C)oc2ccc(NS(=O)(=O)c3ccc(O)c(C(=O)O)c3)cc12 was read as YopH PTP inh -22.5, Arbovirus anti -3.0, Mtb growth -16.0%, RecA splice inh -0.5 and Mtb betalactam 2.1.

Not all compounds are listed; rates above refer to the full screens.
